Screens: PubChem BioAssay, several laboratories
RecA splice inh: Mtb RecA intein splicing inhibitors, primary screen, biochemical, fluorescence, HTS; 0.75% of 290,000 active; Protein RecA (Mycobacterium tuberculosis (strain ATCC 25618 / H37Rv)), P9WHJ3; cell-free RecA intein splicing; AID 2221, 2009; inhibition, %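 (about 9 µM by stock and volumes)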; in the data active = inhibition above about 30%; inconclusive = no clear call, values can overlap the other calls;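 note: 0% = vehicle wells and 100% = reference inhibitor control wells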
Target sequence (P9WHJ3 whole entry, looked up, canonical isoform): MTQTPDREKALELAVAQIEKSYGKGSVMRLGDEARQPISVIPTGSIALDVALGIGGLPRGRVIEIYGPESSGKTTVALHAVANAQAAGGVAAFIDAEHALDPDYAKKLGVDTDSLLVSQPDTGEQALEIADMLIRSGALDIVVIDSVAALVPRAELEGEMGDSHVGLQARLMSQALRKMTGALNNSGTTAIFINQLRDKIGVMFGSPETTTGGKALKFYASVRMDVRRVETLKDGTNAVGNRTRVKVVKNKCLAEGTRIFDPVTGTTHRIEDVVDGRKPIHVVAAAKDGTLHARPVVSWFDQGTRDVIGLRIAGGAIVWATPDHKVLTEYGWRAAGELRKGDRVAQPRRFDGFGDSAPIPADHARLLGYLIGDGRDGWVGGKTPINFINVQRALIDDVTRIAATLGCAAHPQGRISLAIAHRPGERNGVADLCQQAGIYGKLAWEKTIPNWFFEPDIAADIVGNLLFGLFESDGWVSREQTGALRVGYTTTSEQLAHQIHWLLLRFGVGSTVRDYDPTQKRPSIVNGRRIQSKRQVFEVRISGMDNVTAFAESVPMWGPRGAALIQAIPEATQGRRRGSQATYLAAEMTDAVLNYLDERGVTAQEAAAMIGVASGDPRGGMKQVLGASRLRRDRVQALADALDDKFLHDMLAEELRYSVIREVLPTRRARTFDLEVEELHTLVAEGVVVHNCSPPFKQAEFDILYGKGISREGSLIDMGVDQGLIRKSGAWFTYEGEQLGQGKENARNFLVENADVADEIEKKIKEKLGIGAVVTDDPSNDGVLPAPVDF
Arbovirus inh: antivirals against arbovirus infection, primary screen, cell-based, full library, 10K replicate subset; arbovirus infection cell-based antiviral screen; inhibition, % at 10 µM; 0.37% of 200,000 active; AID 1251, 2008;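 active = inhibition from about 30%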;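 note: bluetongue infection of BSR cells; cell survival read as ATP light after 72 h; 0% = infected wells without compound and 100% = uninfected wells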
Mtb H37Rv: M. tuberculosis H37Rv growth inhibitors, H37Rv strain (AID 1626); M. tuberculosis H37Rv growth inhibition; higher % means a stronger effect; inhibition, % at 10 µM; hits with a dose series show IC50 in µM; 0.95% of 220,000 active;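 active = confirmed in a dose series; inconclusive = inhibition above 80% but not taken into the dose series; inactive = below 80% or under 30% at every dose of the series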;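 note: bacteria incubated seven days before Alamar blue readout; 0% = bacteria only wells and 100% = bacteria with antibiotic wells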
Mtb betalactam: beta-lactam sensitization of Mtb H37Rv, H37Rv. M. tuberculosis H37Rv growth with meropenem, percent inhibition; hits of this screen are not shown here. inhibition, % at 25 µM. 0.27% of 330,000 active;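 active = about 74% or more and at least 40 points above the plate without the antibiotic, then above 30% in a dose series; inconclusive = first-round hits that could not be retested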;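 note: growth measured after seven days incubation then overnight dye step; 0% = bacteria only wells and 100% = bacteria with antibiotic; twin plates without the antibiotic show which effects depend on it; some results filed as inactive read as strong as hits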
YopH PTP inh: YopH tyrosine phosphatase inhibitors, primary screen, biochemical, fluorescence Ex485/Em525 | YopH tyrosine phosphatase [Yersinia enterocolitica] | inhibition, %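 (about 10 µM by stock and volumes)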 | 0.16% of 140,000 active;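 active = inhibition of 50% or more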;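 note: controls were vehicle for no effect and minimum signal wells for full effect; inactives centre near -20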
Arbovirus inh repeat: also measured in Arbovirus inh; calls as there; inhibition, %; measured here: 10K subset replicate screen; many hits read low in the repeat;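 first of two repeat runs on a subset; 0% = infected and 100% = uninfected wells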
* = called active by the depositor; ? = inconclusive; . = no result given. Only part of the results is shown; count on the stated rates, not on these rows.

SMILES	RecA splice inh	Arbovirus inh	Mtb H37Rv	Mtb betalactam	YopH PTP inh	others
O=C(Nc1cccc(Cl)c1)c1ccccc1NC(=O)C1CCCCC1C(=O)O (configuration not stated)	-1.1	.	.	7	.
COc1ccc(OCCC(=O)OCC(=O)NCc2ccco2)cc1	-0.6	-4	-11%	-1	-29	Arbovirus inh repeat=5
Cc1ccc(-c2noc(-c3ccccc3C(=O)N3CCOCC3)n2)cc1	-3.1	1	3%	-11	-3
OCCC1CN(Cc2cccn2-c2ncccn2)CCN1C1CCCC1 (configuration not stated)	-1.3	5	1%	-10	.
COCCNc1nnc(SCC(=O)N(C)c2c(N)n(Cc3ccccc3)c(=O)[nH]c2=O)s1	-2.7	.	.	-1	.
COc1ccc(C2C(C(=O)Nc3ccccc3OC)=C(C)Nc3nnnn32)c(OC)c1 (configuration not stated)	-0.2	5	-8%	-3	-38
Cc1cccc(NC(=O)c2cccc(S(=O)(=O)NCc3ccccc3)c2)n1	3.8	.	.	4	.
O=C1CC(c2ccccc2)Sc2ccccc2N1 (configuration not stated)	-0.5	-5	0%	-8	-60
CCS(=O)(=O)c1ccc(C(=O)Nc2ccccc2)c(Cl)c1Cl	1.2	5	2%	-13	-19
CCN(CC)S(=O)(=O)c1ccc(NC2c3ncccc3C(=O)N2Cc2ccccc2)cc1 (configuration not stated)	6.8	2	3%	0	-32
Cc1ccc(-c2nnc(SCCC(=O)N3CCOCC3)o2)cc1	-1.4	16	77%	68	.
COc1cccc(NC(=O)CCS(=O)(=O)c2ccc(Br)cc2)c1	1.5	.	.	-5	.
CCC(Oc1ccccc1)C(=O)NC1CCSC1=O (configuration not stated)	-0.3	-1	-2%	4	.
O=C(/C=C/c1ccc(OC(F)F)cc1)OCC(=O)N1CCc2ccccc21	-3.8	.	.	10	.
O=C(CN1CCC(NC(=O)c2cccc(F)c2)CC1)NCc1ccccc1F	1.0	3	.	?	-5
CCOc1cc(/C=N/NC(=O)COc2ccc(C)cc2)ccc1OC(=O)c1cccs1	3.2	2	48%	9	-1
Cc1ccccc1Cn1nc(C)c(NC(=O)/C=C/c2cnn(C)c2C)c1C	-1.8	-2	-3%	2	-24
Cn1c(CN2CCCC(C(=O)c3ccc4c(c3)OCO4)C2)nc2ccccc21 (configuration not stated)	6.0	0	7%	9	.
Cc1c(C(N)=O)c(N)c(C(=O)c2ccccc2)n1-c1ccccc1	-1.4	-3	-7%	-4	-33
CC1(c2cccs2)CC(c2cccs2)=C(C#N)C(=O)N1 (configuration not stated)	3.4	11	3%	?	2
CN(c1ccc(C(=O)Nc2ccc(S(=O)(=O)N3CCCC3)cc2)cc1)S(C)(=O)=O	-3.4	1	-4%	2	.
CCC(C)C(NC(=O)C1CCC(C)CC1)C(=O)Nc1cc(OC)ccc1OC (configuration not stated)	3.1	-7	-7%	-6	-13
COc1ccc(/C=C(/NC(=O)c2ccccc2)C(=O)NCc2ccncc2)cc1	0.3	.	.	2	.
CCCCNC(=S)N(C)/N=C/c1ccccc1F	4.1	11	11%	11	-27
CC1Cc2ccccc2N1C(=O)COC(=O)c1ccccc1NCCO (configuration not stated)	-6.3	.	.	-13	.
C/C(=N\NC(=O)CSc1nnc(C)s1)c1ccc(O)cc1	0.7	-1	-1%	5	-25
CCOCCCNC(=O)C1(O)c2ccccc2NC(=O)N1c1ccc(Cl)cc1 (configuration not stated)	0.2	.	.	-6	.
Cc1ccc(N2C(=O)/C(=C/c3ccc(CN(CCC#N)S(C)(=O)=O)o3)C(=O)NC2=S)cc1	0.9	12	6%	-6	-62
Cc1cc(OCC(=O)NCc2cccnc2)c2c(C)c(Cc3ccccc3)c(=O)oc2c1	0.0	.	.	0	.
COc1ccccc1NC(=O)Nc1cc(NC(=O)Nc2ccccc2OC)c(C)nc1C	-0.4	-10	10%	-5	-29
Cc1cccc(OCCSCc2nc3ccccc3[nH]2)c1	3.7	9	2%	-2	-17
O=C(COCc1nc2ccccc2c(=O)[nH]1)NCC1CCCCC1	-1.3	5	8%	87	-8
Cc1cc(C(=O)CN2C(=O)C(=O)N(CC(C)C)C2=O)c(C)n1-c1ccccc1F	4.7	2	0%	-5	.
COc1ccc(S(=O)(=O)N2CCN(CC(=O)NC3CCCC3)CC2)cc1	-2.9	.	.	-9	.
O=C(CCCC(=O)N(CC(=O)NC1CCCCC1)c1ccccc1F)Nc1ccccn1	-0.8	.	.	0	.
COc1ccc(Cl)cc1NC(=O)CCCN1C(=O)CCC1=O	0.2	7	1%	-3	-9
CCOC(=O)c1ccc(NC(=S)N(CCCN2CCCC2)Cc2cccs2)cc1	-0.5	-2	?	-6	.
COc1ccc(CCN2CCCC(CN(C)Cc3cc(OC)ccc3OC)C2)cc1 (configuration not stated)	0.2	.	.	4	.
CCOC(=O)C1(Cc2ccccc2)CCCN(C(=O)c2cnn(CC)c2)C1 (configuration not stated)	-2.1	.	.	-6	.
Cc1ccc(C(=O)N/C(=C/c2ccc(F)cc2)C(=O)NCc2ccncc2)cc1	0.1	-2	2%	-8	-32
O=C(OCC(=O)N1CCCCC1)c1c[nH]c(=O)[nH]c1=O	-1.2	5	4%	-2	-31
CCOC(=O)Cc1nnc(Nc2ccc(C)cc2C)c2ccccc12	2.6	-7	-6%	-2	-21
CC(C)C12CN3CC(C(C)C)(CN(C1)C3c1ccccc1)C2O (configuration not stated)	1.2	1	3%	0	-36	Arbovirus inh repeat=2
O=C(O)C(=O)/C(=C\c1ccccc1)c1ccc2ccccc2n1	-7.4	2	-13%	44	-17
CCC(C)C(NC(N)=O)C(=O)Nc1ccc(C(=O)OC)cc1 (configuration not stated)	.	3	-1%	-2	.
CCN1CCN(c2ccc(S(=O)(=O)N3CCCCC3)cc2NC(=O)COc2ccc(Cl)cc2)CC1	-0.3	.	.	30	.
COc1cccc(CNCc2ccc(C(=O)O)cc2)c1OC	2.7	1	6%	-5	.
COc1cccc(CNC(=O)CCNS(=O)(=O)c2ccc3c(c2)oc(=O)n3C)c1	1.5	.	.	-5	.
O=c1[nH]c(O)c(C=NCCc2ccccc2)c(=O)[nH]1	.	.	-9%	-5	.
COc1ccc(C(C)C)cc1S(=O)(=O)Nc1ccc(Cl)cn1	-0.2	0	-7%	-2	-28
Cc1ccc(C(c2c(C)nn(-c3ccccc3)c2N)c2c(C)nn(-c3ccccc3)c2N)cc1	9.3	-8	7%	18	-19
C/C(=C\C(=O)c1ccc(Cl)cc1)Nc1ccc(N2CCOCC2)cc1	-4.6	5	.	0	-9
C/C(=N\NC(=O)c1ccco1)c1ccc(NC(=O)c2cccs2)cc1	-2.2	-2	-2%	1	-14
CCOc1ccccc1NC(=O)CCNS(=O)(=O)c1ccccc1	-0.3	.	.	4	.
CCN(Cc1ccccc1)C(=O)c1cccnc1	-1.0	.	.	-3	.
Cc1cccc(OCCN2CSC(=S)N(C)C2)c1	42*	-40	5%	100	-26
CCCCn1nnnc1SCC(=O)NNC(=O)c1ccco1	-0.9	0	-6%	5	.
COc1ccc(NC(=O)CN(C)C(=O)c2c(C)nn(-c3ccccc3)c2Cl)cc1	-3.4	.	.	-4	.
Nc1ncnc2c1ncn2CCN1CCOCC1	-3.4	-4	2%	4	8
O=C(N/N=C/c1cccc(F)c1)c1ccc(Cl)cc1	-2.4	-6	1%	0	.

Continuation.
SMILES	RecA splice inh	Arbovirus inh	Mtb H37Rv	Mtb betalactam	YopH PTP inh	others
CCCCNC(=O)Nc1ccccc1C(=O)NCCC	1.2	-4	-2%	-1	-7
Cc1[nH]c2ccccc2c1C(=O)CSCC(=O)O	3.4	1	6%	16	-7
O=c1[nH]c(SCc2ccc(F)cc2Cl)nc2ccccc12	0.6	3	10%	-6	.
CC(Sc1nc2c(N)ncnc2n1CCOc1ccccc1)C(=O)O (configuration not stated)	0.8	.	.	4	.
Cc1ccc(NC(=O)CNS(=O)(=O)c2cccs2)cc1F	7.5	7	-3%	-12	-27	Arbovirus inh repeat=2
CCOC(=O)Cn1c(=O)n(Cc2ccco2)c(=O)c2ccc(C(=O)NCCc3ccccc3)cc21	-3.7	3	-9%	67	-58
COc1cc(/C=N/NC(=O)Cn2cnc3c2c(=O)n(C)c(=O)n3C)cc(OC)c1OC	-0.9	.	-4%	-5	.
CC1CCCCN1CCCNc1ccc(C(CC(N)=O)NC(=O)Cc2ccc(Br)cc2)cc1[N+](=O)[O-] (configuration not stated)	-1.4	.	.	3	.
COCCNC(=O)c1ccc2c(=O)n(Cc3ccco3)c(SCC(=O)NC3CCCC3)nc2c1	-1.4	4	-4%	0	-26
CCn1nnnc1SCC(=O)Nc1nc(C)c(C)s1	0.2	-2	-14%	1	3
C=CCN1C(=O)/C(=N/n2cnnc2)c2ccccc21	-0.2	-4	2%	40	-33
CCCNC(=O)Cn1cnc2sc(C(=O)N3CCN(Cc4ccc5c(c4)OCO5)CC3)c(C)c2c1=O	-1.4	30	0%	-12	.
Cn1c(-c2ccc3nc(N)sc3c2)nc2cc(N)ccc21	0.1	-3	-18%	-7	-3
CCSc1nnc(-c2cccnc2)n1-c1ccc(C)c(Cl)c1	.	-5	-3%	19	-18
Cc1ccc(C)c(CN2CCC(CNC(=O)Nc3ccc(Cl)cc3)CC2)c1	-0.4	.	.	8	.

Sorted by count of non-hydrogen atoms (rising): some entries from above
SMILES	RecA splice inh	Arbovirus inh	Mtb H37Rv	Mtb betalactam	YopH PTP inh	others
CCn1nnnc1SCC(=O)Nc1nc(C)c(C)s1	0.2	-2	-14%	1	3
Cn1c(-c2ccc3nc(N)sc3c2)nc2cc(N)ccc21	0.1	-3	-18%	-7	-3
COc1cc(/C=N/NC(=O)Cn2cnc3c2c(=O)n(C)c(=O)n3C)cc(OC)c1OC	-0.9	.	-4%	-5	.
COCCNC(=O)c1ccc2c(=O)n(Cc3ccco3)c(SCC(=O)NC3CCCC3)nc2c1	-1.4	4	-4%	0	-26
CCCNC(=O)Cn1cnc2sc(C(=O)N3CCN(Cc4ccc5c(c4)OCO5)CC3)c(C)c2c1=O	-1.4	30	0%	-12	.

New compounds follow.
SMILES	RecA splice inh	Arbovirus inh	Mtb H37Rv	Mtb betalactam	YopH PTP inh	others
CC(=O)Nc1cccc(C(=O)/C=C/c2ccc(F)cc2)c1	2.6	-34	16%	99	.
COc1ncnc2c1oc1nc(CC(C)C)c3c(c12)CC(C)(C)OC3	.	5	-4%	23	-48
Nc1nc(CSc2ccccc2)nc(N2CCCCC2)n1	3.0	-2	-3%	-1	.
NC(=O)NCc1ccc(C(=O)OCc2ccncc2)cc1	-2.1	2	-4%	-1	-19
CCN(Cc1ccccc1)C(=O)CN1C(=O)c2ccccc2S1(=O)=O	-1.6	.	.	-11	.
Cc1nc2nc(-c3ccc(Cl)cc3)nn2c(C)c1Cl	1.6	9	.	.	-20
Cc1noc(NS(=O)(=O)c2ccc(N3C(=O)c4ccccc4C3=O)cc2)c1C	1.7	4	-12%	0	-57
COc1ccc(C)cc1S(=O)(=O)N1CCCC(C(=O)N2CCN(c3ccccc3)CC2)C1 (configuration not stated)	3.3	.	.	?	.
COc1ccc(CNC(=O)C(=O)NCC2OCCN2S(=O)(=O)c2ccc(OC)cc2)cc1 (configuration not stated)	1.7	.	.	-1	.
CSc1ccccc1NC(=O)COc1ccccc1C	9.5	1	2%	15	.
CN(C)C(=O)c1nnc(Cc2ccc(Cl)cc2)o1	0.2	-1	.	-2	-21	Arbovirus inh repeat=1
C/C(CC(=O)Nc1ccc(N(C)C)cc1)=N\NC(=O)c1ccccc1O	-0.7	.	.	8	.
O=C(NCCN1CCN(Cc2ccccc2)CC1)c1ccc(CS(=O)(=O)c2ccc(Br)cc2)o1	0.6	.	.	-4	.
O=C(CNC(=O)c1ccc(-c2ccccc2)cc1)Nc1ccc(S(=O)(=O)Nc2ncccn2)cc1	.	.	1%	8	.
COc1ccc(NS(=O)(=O)c2cc(NC(=O)c3cc(F)c(F)c(F)c3F)ccc2N2CCCC2)cc1	3.6	.	2%	-4	.
Cc1ccc(Nc2nc3ccccc3nc2-n2nc(C)cc2C)cc1	-47	-9	17%	-5	-20
Cc1csc(-c2cnn(-c3ccccc3)c2NC(=O)c2ccc(C(F)(F)F)cc2)n1	-0.9	4	10%	50	-19
COc1ccc(N(C(=O)c2ccco2)S(=O)(=O)c2cccs2)cc1	33*	-2	8%	8	-37
O=C(NCc1ccco1)c1cc(-c2ccccn2)nc2ccccc12	2.0	7	-4%	-3	-21
Nc1ccc(C(=O)N2N=C(c3ccccc3)CC2(O)C(F)(F)F)cc1 (configuration not stated)	2.2	.	.	8	.
NCCNC(=O)c1ncsc1-c1cccc(F)c1	0.8	.	-6%	-2	.
CCN1CCN(Cc2c(C(=O)N/N=C(\C)c3ccc(Cl)c(Cl)c3)nnn2-c2nonc2N)CC1	-1.0	.	.	2	.
